TRPV1 PAM: human TRPV1 potentiation; 320,000 tested, 0.02% active; Q8NER1; potentiation, % at 8.33 µM; TRPV1-expressing cells, Fluo-8 calcium influx, capsaicin EC20 potentiation; host cell line not named in the record; control for the full effect not named in the record; active means potentiation above 80%; inconclusive means 30% to 80%; inactive means below 30%; also: 0% is about no effect
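Fluo-8 calcium influx in TRPV1-expressing cells, kinetic read (ex 480/em 520 nm). Compound added and read 3 min for agonist activity, followed by capsaicin at EC20 final and 2 min further read for enhancement.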
TRPML1 blocker: inhibitors of human TRPML1 channel | Q9GZU1 | AID 624415 | activity change, negative = inhibition, % (concentration not given with the values) | TRPML1-inducible cells, Ca2+ dye fluorescence, FDSS; hits give low values; inhibition of EC80 agonist-evoked calcium signal | 390,000 tested, 0.02% active; in the data active means activity change below about -50%; inconclusive means about -30% to -50%; inactive means above about -30%;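 also: stimulus is agonist 54-4 at its EC80 concentration; % is scaled to controls: 0 for no effect and ±100 for the full control effect; compound concentration not given in the record; the text of the record puts the active cut at -80%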
Target sequence (Q9GZU1 whole entry, looked up): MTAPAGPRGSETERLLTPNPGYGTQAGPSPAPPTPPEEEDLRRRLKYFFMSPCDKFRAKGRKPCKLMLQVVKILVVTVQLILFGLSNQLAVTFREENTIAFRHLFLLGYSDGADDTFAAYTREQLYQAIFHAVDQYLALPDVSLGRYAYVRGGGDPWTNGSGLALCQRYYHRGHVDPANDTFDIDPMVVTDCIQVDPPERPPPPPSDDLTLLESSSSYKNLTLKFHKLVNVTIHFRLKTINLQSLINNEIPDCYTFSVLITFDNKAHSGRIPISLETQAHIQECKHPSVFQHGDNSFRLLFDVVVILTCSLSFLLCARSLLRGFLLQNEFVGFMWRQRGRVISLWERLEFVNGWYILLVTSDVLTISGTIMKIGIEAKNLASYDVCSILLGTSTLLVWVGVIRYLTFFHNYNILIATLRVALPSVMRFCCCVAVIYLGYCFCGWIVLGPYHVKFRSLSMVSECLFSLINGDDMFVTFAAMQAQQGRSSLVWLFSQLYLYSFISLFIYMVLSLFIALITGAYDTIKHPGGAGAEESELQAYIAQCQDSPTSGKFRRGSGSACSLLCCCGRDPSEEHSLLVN
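Tet-induced TRPML1-DL cells loaded with Ca8 no-wash calcium dye were read kinetically on FDSS. Compound addition was followed by EC80 agonist 54-4 (4 uM final); inhibition was read over 110 s.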
D2 potentiator: positive allosteric modulators of human D2 dopamine receptor | P14416 | DiscoveRx D2 beta-arrestin cells, luminescence, 90 min; 100% = 57 uM dopamine signal | potentiation, % (test concentration not listed) | 360,000 tested, 0.23% active; active = potentiation of 50% or more; inconclusive = 30% to 50%; inactive = 30% or less;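 also: compound concentration not given in the record; tested on top of an EC20 dose of dopamine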
Target sequence (P14416 whole entry, looked up): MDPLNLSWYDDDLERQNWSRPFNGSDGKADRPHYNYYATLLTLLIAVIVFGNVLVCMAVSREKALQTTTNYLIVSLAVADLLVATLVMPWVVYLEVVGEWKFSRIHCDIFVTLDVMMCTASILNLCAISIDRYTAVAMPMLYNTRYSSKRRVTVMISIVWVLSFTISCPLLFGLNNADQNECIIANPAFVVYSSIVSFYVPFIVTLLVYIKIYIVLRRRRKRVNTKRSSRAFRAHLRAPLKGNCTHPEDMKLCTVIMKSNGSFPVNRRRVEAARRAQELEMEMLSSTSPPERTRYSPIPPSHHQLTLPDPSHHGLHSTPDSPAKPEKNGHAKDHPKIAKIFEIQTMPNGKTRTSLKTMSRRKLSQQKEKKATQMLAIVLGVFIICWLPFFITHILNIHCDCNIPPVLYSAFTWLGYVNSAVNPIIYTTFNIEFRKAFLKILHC
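D2 cells co-treated with compound plus 50 nM dopamine (EC20) for 90 min at 37 deg C to detect potentiation. Beta-arrestin recruitment was read as enzyme-fragment luminescence after 1 h at ambient temperature. Full response was set by 57 uM dopamine.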
TRPML1 agonist: activates the human TRPML1 channel; Q9GZU1; TRPML1-expressing cells, Ca2+ dye fluorescence, FDSS; host cell line not named in the record; reference of the full effect not given here; activation, % (no concentration beside the values); 410,000 tested, 0.12% active; AID 624414; in the data active = activation above about 50%; inconclusive = about 30% to 50%; inactive = below about 30%; also: 0% is about no effect; the text of the record puts the active cut at 80%
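Calcium fluorescence on an FDSS kinetic reader gave the read-out. Tet-induced TRPML1-DL cells were plated overnight, dye-loaded (Ca8 with quencher, 45-90 min, room temperature, dark), then read 110 s after compound addition, and again 110 s after 4uM final 54-4 (EC80).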
Six1-Eya2 blk: blocks human Six1 binding to Eya2 | AlphaScreen GST-Six1/His-Eya2 binding, biochemical; hits give low values; control for the full effect not named in the record | activity change, % (concentration not given with the values) | 360,000 tested, 0.56% active | AID 651725; in the data active = activity change below about -65%; inconclusive = about -30% to -65%; inactive = above about -30%; also: % is scaled to controls: 0 for no effect and ±100 for the full control effect
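Compounds are tested against tagged Six1 and Eya2 proteins bridged by glutathione donor and nickel acceptor beads; after a one-hour incubation at 37 °C without light, AlphaScreen emission is recorded.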
CtBP-E1A inh: blocks the CtBP interaction with E1A. AlphaScreen GST-E1A/His-CtBP binding, 1536-well; hits give low values; control for the full effect not named in the record. activity change, % (no concentration beside the values). 340,000 tested, 0.49% active; in the data active means activity change below about -65%; inconclusive means about -30% to -65%; inactive means above about -30%; also: % is scaled to controls: 0 for no effect and ±100 for the full control effect; compound concentration not given in the record
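Steps: dispense buffer (Tris pH 8.0, NaCl 300 mM, TCEP 1 mM, BSA, Tween 20); add 5X protein mix (GST-E1A, His-CtBP, 125 nM each); pin 23 nL compound; 2 h at 37 °C, dark; add 5X beads (50 ug/mL); 1 h; read.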
Active calls of the source: *; ? = inconclusive; · = not tested or not shown; & = joins results of further samples.

SMILES	TRPV1 PAM	TRPML1 blocker	D2 potentiator	TRPML1 agonist	Six1-Eya2 blk	CtBP-E1A inh
C/C(NC1CCCC1)=C(/C#N)C(N)=O	9	4	-10	-0.4	5	-4
CCc1ccc2[nH]c(=O)c(C(c3nnnn3Cc3ccc(OC)cc3)N3CCOCC3)cc2c1 (stereo not drawn)	-8	8	-8	-0.3	-2	-7
Cc1ccc(-c2ccc(S(=O)(=O)Nc3cccnc3)cc2)cc1	-2	-6	-6	0.0	20	11
CN1CCN(c2ncnc3c2[nH]c2ccc(F)cc23)CC1	·	1	-22	-0.7	-7	-6
Cc1cccc(Nc2nc(-c3sc(C)nc3C)cs2)c1	22	18	-26	2.3	-27	-21
N#Cc1c(N)c(C#N)c(-c2ccc(O)cc2)c2c1CCCC2	-7	2	-12	1.3	-5	-3
c1cc(OCCCN2CCCCC2)ccc1CN1CCCCC1	-2	-6	-19	-0.1	21	-6
CCCS(=O)(=O)NCCc1cc2c(C)ccc(C)c2[nH]c1=O	-25	0	-5	-0.4	6	-9
COc1ccc(CCNC(=O)CSc2ccc3ccccc3c2)cc1OC	-7	-14	-17	0.0	4	20
O=C(Nc1ccccc1)C1CC(=O)n2ncnc2N1 (stereo not drawn)	14	25	11	2.9	5	0
CN1CCN(CCn2c(=S)[nH]c3ccccc3c2=O)CC1	7	-10	-9	-0.4	-1	5
O=C(COC(=O)c1ccc(N2CCCC2=O)cc1)c1ccc(OC(F)F)cc1	-7	26	6	0.6	11	2
Cc1c(CCOC(=O)c2ccc([N+](=O)[O-])cc2)sc[n+]1CC(=O)c1ccccc1	8	32	-3	-0.5	-11	1
Cc1ccc(C(C)C)cc1OCCn1cncn1	2	-6	-7	0.1	-14	-2
CCCN(CCC)C(=O)c1ccccc1C(=O)N(CCC)CCC	-3	1	-6	-1.0	0	8
CCOc1ccc(S(=O)(=O)NCc2cccs2)cc1	1	3	-8	0.7	-2	4
O=C(c1cccc(S(=O)(=O)N2CCOCC2)c1)N(CCc1ccccc1)Cc1ccccc1	-13	4	3	-0.7	-2	-4
O=C1NCCN1C(=O)N(c1ccccc1)c1ccccc1	-10	0	-5	0.8	5	18
CC(=O)N(Cc1cc(=O)[nH]c2ccccc12)c1ccccc1C	-2	3	-5	-1.3	-6	-5
CNC(CC(C)C)C(=O)NC1C(=O)NC(CC(N)=O)C(=O)NC2C(=O)NC3C(=O)NC(C(=O)NC(C(=O)O)c4cc(O)cc(O)c4-c4cc3ccc4O)C(O)c3ccc(c(Cl)c3)Oc3cc2cc(c3OC2OC(CO)C(O)C(O)C2OC2CC(C)(N)C(O)C(C)O2)Oc2ccc(cc2Cl)C1O (stereo not drawn)	·	5	-7	2.4	3	-5
Cc1c(NC(=O)Nc2ccc(C(C)(C)C)cc2)c(=O)n(-c2ccccc2)n1C	-10	-10	-1	0.8	9	-3
O=C(Nc1ccc(C(=O)NCCCN2CCN(c3ccc(F)cc3)CC2)cc1)C1=CSCCO1	-24	4	-52	10	-9	-17
CCCCCn1c(SC(C)C(C)=O)nc2c1c(=O)[nH]c(=O)n2C (stereo not drawn)	-3	-1	-2	-0.9	9	-11
O=C(c1ccco1)N1CCN(/C(=N/S(=O)(=O)c2cccs2)c2ccccc2Cl)CC1	10	-22	3	-0.3	4	5
Cn1c(CC(=O)Nc2ccccc2)nnc1SCC(=O)c1ccccc1	·	13	-1	-0.4	4	-9
CCOC(=O)N1CCN(C(=O)Nc2ccc3nccnc3c2)CC1	23	-3	-5	0.0	-2	11
Cc1c(N(C)S(=O)(=O)c2cccc(C(=O)NCc3cccnc3)c2)c(=O)n(-c2ccccc2)n1C	·	-7	3	-1.0	-1	-1
COc1cc(NC(=O)C(=O)Nc2ccc3nc4n(c(=O)c3c2)CCCCC4)cc(OC)c1OC	12	5&28	-11	-0.3&2.1	-6	·
Cc1ccc(Cc2c(-c3ccc(C)cc3)nc3ccc(Br)cn23)cc1	·	?	0	1.2	7	7
O=C(C1CC1)N1CCc2cc(Br)cc(S(=O)(=O)NCc3ccco3)c21	1	37	-6	0.2	2	-19
CC(=O)N/C(=C\c1ccc(Br)s1)C(=O)O	-4	4	2	0.3	10	2
CN(C)S(=O)(=O)c1ccc(C(=O)N2CCC(c3nc4ccccc4o3)CC2)cc1	4	-3	-9	0.1	-3	6
CCCCN(Cc1ccccc1)C(=O)C1CCN(Cc2sccc2C)CC1	-6	6	-26	1.3	-12	0
CC(=O)c1ccc(OCCCC(=O)Nc2cccc(S(=O)(=O)N(C)C)c2)cc1	-5	-1	-5	0.9	6	-12
COC(=O)[C@H]1[C@@H](C)N(Cc2ccccc2)C(=O)N[C@H]1c1ccccc1	·	-4	-6	0.3	9	-20
Cc1ccc(C)c(OCC(O)CN2CCC(CN3C(=O)c4cccc5cccc(c45)C3=O)CC2)c1 (stereo not drawn)	2	11	-31	0.8	-3	0
O=C(NCc1ccc(F)cc1)c1cc(C2CCCCN2C(=O)c2ccc3c(c2)CCO3)on1 (stereo not drawn)	·	·	-7	-1.0	-21	-11
COc1cc(Cl)c(C)cc1NC(=O)c1ccc2c(SCC(=O)O)c3c(nc2c1)CCCC3	12	-3&-24	4	-0.5&-1.0	-6	-29
Clc1cccc(Cl)c1COc1ccncc1	5	-7	-2	-0.4	9	8
Cc1cc(C)cc(NC(=S)NCCc2c[nH]c3ccccc23)c1	6	-7	-1	0.6	-23	-19
O=C(c1cn[nH]c1)c1cc(F)ccc1O	18	64	2	0.8	11	2
COc1ccccc1NC(=S)NC1CCCCCCCCCCC1	-11	21	-9	0.9	-6	·
Cc1ccc(N(C(=O)c2ccc(CN3CCOCC3)o2)C(C(=O)NCCC(C)C)c2cccs2)c(C)c1 (stereo not drawn)	3	15	-14	0.8	0	-5
CCOC(=O)C1CCCN(c2c(NCCc3ccc(C)cc3)c(=O)c2=O)C1 (stereo not drawn)	1	-20	-3	0.5	12	-11
COc1cccc(CNC(=O)Cn2c(=O)c3cccn3c3ccccc32)c1	-10	4	0	0.5	4	·
Cc1ccc(O)c(-c2[nH]ncc2C(=O)c2ccc(Br)cc2)c1	23	17	-7	-0.2	-1	-2
CC(=O)c1cccc(NC(=O)CN(Cc2ccccc2)S(C)(=O)=O)c1	2	-4	-12	0.6	-4	-1
CC(C)[C@H](NC(=O)c1cccc(S(=O)(=O)N2CCCC2)c1)c1nc2ccccc2[nH]1	5	-12	-17	-0.2	6	8
O=c1c2cnn(-c3ccccc3)c2ncn1Cc1cccnc1	-14	2	-13	-0.3	-1	0
COc1cccc(Nc2nc(C(N)c3ccccc3Cl)cs2)n1 (stereo not drawn)	·	·	-8	0.5	-18	?
Cc1cccc(NC(=O)C2CCCN(c3ncnc4c3nc3n4CCCCC3)C2)n1 (stereo not drawn)	-17	-14	25	0.8	-2	1
CC(NS(=O)(=O)c1ccccc1)C1CC2CCC1C2 (stereo not drawn)	·	4	1	1.2	6	22
COc1ccc(NC(=O)NC2(C(=O)N3CCCC(C)C3)CCCCC2)cc1 (stereo not drawn)	4	-12	-10	0.1	4	-3
CCc1c(O)c(-c2ccccc2)c(=O)n(-c2ccccn2)c1-c1ccccc1	-4	4	1	0.1	8	3
C=C(C)COc1ccc(-c2n[nH]c(C)c2-c2ccc(Br)cc2)c(O)c1	?	17	13	1.3	-3	1
CCN(CC)C(=O)N1CCN(S(=O)(=O)c2ccc(C)c(C)c2)CC1	-2	10	-2	0.3	22	0
CCC(NC(=O)c1ccccc1NC(=O)c1ccco1)C(=O)O (stereo not drawn)	2	61	-13	0.9	0	1
COC(=O)c1[nH]c2ccc(C)cc2c1NS(=O)(=O)c1ccc(F)c(C)c1	-17	-6	-32	1.2	0	-1
CC(Oc1ccc(C(=O)NC2CCCCC2)cc1)C(=O)O (stereo not drawn)	5	5	3	-0.1	0	9
O=C(NCCN1CCOCC1)c1cccc(S(=O)(=O)Nc2ccc(F)cc2)c1	6	-1	-12	-0.1	12	·

Profiles, quoted from the list.
COc1ccc(NC(=O)NC2(C(=O)N3CCCC(C)C3)CCCCC2)cc1 (stereo not drawn) is listed with TRPV1 PAM = 4; TRPML1 blocker = -12; D2 potentiator = -10; TRPML1 agonist = 0.1; Six1-Eya2 blk = 4; CtBP-E1A inh = -3
Cc1ccc(O)c(-c2[nH]ncc2C(=O)c2ccc(Br)cc2)c1 is listed with TRPV1 PAM = 23; TRPML1 blocker = 17; D2 potentiator = -7; TRPML1 agonist = -0.2; Six1-Eya2 blk = -1; CtBP-E1A inh = -2
CC(Oc1ccc(C(=O)NC2CCCCC2)cc1)C(=O)O (stereo not drawn) is listed with TRPV1 PAM = 5; TRPML1 blocker = 5; D2 potentiator = 3; TRPML1 agonist = -0.1; Six1-Eya2 blk = 0; CtBP-E1A inh = 9

Next records.
SMILES	TRPV1 PAM	TRPML1 blocker	D2 potentiator	TRPML1 agonist	Six1-Eya2 blk	CtBP-E1A inh
Cc1noc(/C=C/c2ccc(-c3ccccc3Cl)o2)c1[N+](=O)[O-]	-7	-5	18	4.8	-1	2
c1cncc(-c2nn3c(Cn4cnc5ccccc54)nnc3s2)c1	14	11	3	-0.1	2	11
CC(=O)Oc1ccc2nc(CN3C(=O)c4ccc([N+](=O)[O-])cc4C3=O)oc(=O)c2c1	26	10	12	-0.5	-17	-15
Cc1ccc(S(=O)(=O)N(C)c2ccc(OCC(=O)Nc3nc4ccccc4s3)cc2)cc1	1	-15	-17	-0.2	-22	-21
Cn1c(=O)c2c(c3ccccc31)OC(C)(C)CC2	-3	44	0	-0.6	-1	3
O=C(COC(=O)/C=C/c1cccc(Br)c1)NCc1ccco1	-20	4	-3	0.3	-4	-3
COc1ccc2c(c1)C(CC(C)=O)N(c1ccc(-c3cnc(OC)nc3)cc1)C(c1ccsc1)=C2 (stereo not drawn)	·	·	·	-0.2	11	7
O=C(O)CCSc1nnc(COc2ccc([N+](=O)[O-])cc2)n1-c1ccccc1	0	-3	-17	3.7	1	·
Cc1cccc(C)c1NC(=O)CC(NCc1ccco1)C(=O)O (stereo not drawn)	11	8	-5	-0.2	2	1
O=[N+]([O-])c1cc(C(F)(F)F)ccc1NCCNC(=S)Nc1ccc(Cl)cc1	-27	2	-9	1.3	?	11
O=C(Nc1ccccn1)C1CCCN(c2ncnc3c2nc2n3CCCCC2)C1 (stereo not drawn)	-1	31	-1	0.5	-6	3
CC(=O)OCC(=O)[C@@]1(O)[C@H](C)C[C@H]2[C@@H]3CCC4=CC(=O)C=C[C@]4(C)[C@@]3(F)[C@@H](O)C[C@@]21C	3	-5	-19	1.7	5	-1
Cn1c(=O)c2[nH]c(NCC3CCCO3)nc2n(-c2ccccc2)c1=O (stereo not drawn)	7	0	6	-0.3	8	0
Cc1ccc(-n2c(-c3ccccc3)cc(=O)nc2C)cc1	-1	-3	8	1.0	6	11
O=C(Cc1ccsc1)NCC(=O)Nc1ccc(F)c(F)c1	-13	13	-5	-0.5	3	-1
Cc1ccc2nc(N3CCN(C)CC3)c(C=O)c(=O)n2c1	-2	3	-7	-0.8	6	4
O=C1CSC(=Nc2cc(Cl)ccc2Cl)N1	-10	6	-17	0.8	2	0

Screening data as filed in PubChem BioAssay.
